# PABP polyA inh: blocks human PABP binding to poly(A) RNA; inhibition, % at 35 µM; 1% of 290,000 active; AID 2014; P11940; fluorescence polarization;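 active = 50% or more with normal probe brightness, or confirmed in later tests; inconclusive = above 50% with abnormal brightness, or retests that disagree; inactive = below 50% or failed in later tests; about a fifth of its hits are not listed in these tables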;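 note: calls also rest on retests at 20 µM and on dose response follow-up; controls were probe without protein and protein plus probe with vehicle; some compounds called inactive have numbers as strong as hits; many hits fall short of the cut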
# Rce1 inh: blocks yeast Ras-converting enzyme | Q03530 | yeast membranes, quenched prenylated peptide cleavage fluorescence | calls only | 0.27% of 290,000 active;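 active = fall in fluorescence gain of 50% or more versus controls, with final raw signal at or below 3038400; inconclusive = same 50% fall but final raw signal above 3038400; inactive = fall in fluorescence gain under 50%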;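 note: plate controls were neutral control wells for no effect and wells lacking membranes for full effect; tested at 10 µM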
# Target sequence (Q03530 whole entry, looked up): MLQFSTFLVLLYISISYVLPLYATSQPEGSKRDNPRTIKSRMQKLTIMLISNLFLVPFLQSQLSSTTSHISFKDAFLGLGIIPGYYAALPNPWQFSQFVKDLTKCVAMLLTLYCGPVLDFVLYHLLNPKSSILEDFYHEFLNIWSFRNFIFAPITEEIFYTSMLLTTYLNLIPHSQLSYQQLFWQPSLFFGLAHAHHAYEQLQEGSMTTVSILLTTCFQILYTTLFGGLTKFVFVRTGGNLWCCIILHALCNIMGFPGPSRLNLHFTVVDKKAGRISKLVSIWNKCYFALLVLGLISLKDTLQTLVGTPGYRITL
# CSC inhib: cancer stem cell inhibition. cancer stem cell-like cells viability, luminescence. inhibition, % at 7.5 µM. 1.1% of 300,000 active. AID 2717;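 active = mean at 75% or more and at least half the replicates too; inconclusive = mean and replicates disagree; tested in HMLE shEcad cells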;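 note: 0% = median of negative and 100% = median of positive control wells; the first replicate is given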
# MT1-MMP act inh: inhibitors of human MT1-MMP activation. P50281. HT1080 RFP-PRO-GFP cells, GFP/RFP ratio fluorescence, overnight; percent of plate control window, DMSO zero. GFP/RFP ratio change, % at 20 µM. 0.061% of 360,000 active. AID 651647;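 active = GFP/RFP ratio change of at least 30% with cell ATP level not reduced by more than half and red fluorescence within 50% of control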; note: strong numbers were not always called active
#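 Material – HT1080 RFP-PRO-GFP cells · Control set – DMSO wells and RFP-L50D-GFP cells · Incubation – overnight cell settling, then overnight compound exposure, 37 °C, 5% CO2 · Compound dosing – single-point 20 µM compound, 1% DMSO · Read-out – GFP/RFP fluorescence ratio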
# eIF4H inh: inhibitors of RNA binding by human eIF4H | Q15056 | eIF4H fluorescence polarization binding assay | inhibition, % at 35 µM | 0.94% of 290,000 active;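 active = 50% or more with normal probe brightness, or confirmed in later tests; inconclusive = above 50% with abnormal brightness, or retests that disagree; inactive = below 50% or failed in later tests; about a fifth of its hits are not listed in these tables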;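 note: calls also rest on retests at 20 µM and on dose response follow-up; 0% = protein and probe with vehicle and 100% = probe without protein; strong numbers were not always called active; many hits fall short of the cut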
# UUG fidelity: modulators of start codon recognition fidelity in yeast; AID 602363; S. cerevisiae UUG-firefly luciferase reporter, luminescence/redox ratio; 0.13% of 350,000 active; activity score, % at 18.7 µM;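 active = replicate mean at a twofold rise or more, about +100% in these data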;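 note: firefly luciferase made from a UUG start codon reports start codon fidelity; reporter light over untreated wells divided by growth signal over untreated wells; some hits fall short of that in this replicate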
# Env fusion inh: blocks HIV Env-driven cell-cell fusion. HeLa-JRFL Env/CEM21 cell fusion, luciferase. inhibition, % at 12.3 µM. 1.1% of 360,000 active. AID 651610;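 active = mean replicate inhibition score of at least 50 and every replicate individually at or above 50; inconclusive = only one of the two criteria met; inactive = mean below 50 and not all replicates reaching 50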;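 note: 0% = plate neutral controls and 100% = maraviroc near 300 nM; one replicate is shown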
# eIF4H inh retest: second read-out of eIF4H inh, no call of its own (marks repeat the call); inhibition, %; compound at 20 µM; confirmation average;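 mean of two retest wells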
# PABP polyA inh retest: further read-out of PABP polyA inh, marked with its call; inhibition, %; compound at 20 µM; confirmation repeats;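 mean of two retest wells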
# MT1-MMP act inh RFP: also measured in MT1-MMP act inh; calls as there; RFP signal change, %; measured here: RFP expression control read;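 0 = vehicle wells; hits needed this value within 50% of zero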
# The depositor's hits bear a star; i = inactive; ? = inconclusive; nt = no result given; & = joins results of further samples. Hits appear at their usual frequency. About 2.9% of those tested had a hit in this group.
SMILES,PABP polyA inh,Rce1 inh,CSC inhib,MT1-MMP act inh,MT1-MMP act inh RFP,eIF4H inh,UUG fidelity,Env fusion inh,others
O=C(Nc1ccc(Cl)cc1)C1CCN(C(=O)NC2CCCCC2)CC1,0.6,i,nt,6.0,-1.3,-7.5,-13.1,-4.2,
O=C1CCN(CCc2ccccc2)CCN1[C@H](COc1ccccc1)Cc1ccccc1,4.3,i,10.9,7.4,-1.8,-2.3,-8.1,-39.6,
O=C(Nc1cccc2ccccc12)C1CCCC1,-3.2,i,nt,0.0,0.7,4.6,-25.0,-0.7,
Cc1cccnc1NC(=O)CCNC(=O)c1ccc(Cl)cc1,-9.3,i,5.1,-3.1,-0.2,-0.4,-8.9,-66.3,
Nc1c(NC2CCCCC2)c2ccccc2oc1=O,-0.7,i,-7.9,-1.9,-0.8,-1.6,nt,26.6,
COC(=O)CC1C(=O)NC(C)=C1C(=O)OC (configuration not stated),3.6,i,-8.0,nt,nt,-0.8,nt,nt,
Cc1ccccc1C(=O)N/N=C1\SCC(=O)N1Cc1ccco1,-1.5,i,4.0,-1.8,1.5,-10.5,nt,9.8,
O=C(CCn1cccc(C(F)(F)F)c1=O)Nc1cccc(C(F)(F)F)c1,-2.5,i,1.9,6.3,-2.0,-2.6,-10.8,16.6,
O=C(OCN1C(=O)c2ccccc2C1=O)c1cc(S(=O)(=O)N2CCOCC2)ccc1F,nt,nt,nt,6.7,3.3,nt,-25.2,-18.4,
COc1cc(C(c2c(C)[nH][nH]c2=O)c2c(C)[nH][nH]c2=O)cc(OC)c1OC,-1.0,i,22.7,3.3,2.0,-8.3,nt,-7.0,
COc1ccc(CC(NC(C)=O)C(=O)NC2CCN(C(=O)c3cc(OC)c(OC)c(OC)c3)CC2)cc1 (configuration not stated),7.8,i,-13.4,1.7,3.5,-8.1,nt,12.2,
O=C(Nc1nn[nH]n1)c1cccc([N+](=O)[O-])c1,-19.5,i,-15.0,-5.4,2.8,1.6,nt,4.7,
O=C(COC(=O)c1cncc(Br)c1)NCc1ccccc1Cl,63.1*,i,9.1,1.2,3.4,10.6,nt,4.3,eIF4H inh retest=38.3;PABP polyA inh retest=103.3*
O=C(c1ccco1)N1CCN(S(=O)(=O)c2ccc(S(=O)(=O)NC3CCCCC3)cc2)CC1,-1.5,i,-13.5,5.2,0.3,-5.7,-10.3,nt,
O=C(CSc1nnc(COc2ccccc2Cl)o1)Nc1ccccc1,nt,nt,-4.3,-1.8,2.5,nt,-19.6,nt,
O=C(Nc1ccccc1)c1nc[nH]c1C(=O)NCCNC(=O)c1[nH]cnc1C(=O)Nc1ccccc1,nt,nt,13.8,-7.6,4.7,nt,-13.5,33.1,
Cc1ccc(S(=O)(=O)N2CCN(C(=O)CCn3nc(C)c(C)c3C)CC2)cc1,-3.2,nt,-0.6,-1.9,0.9,-4.7,-12.6,-3.5,
CC(=O)c1ccc(NC(=O)COC(=O)CC2CC3CCC2C3)cc1 (configuration not stated),nt,nt,5.7,1.1,0.5,nt,2.2,nt,
Cc1ccc(O)c(CCc2ccc(O)cc2)n1,5.2,i,-15.7,-0.2,0.0,-2.1,nt,9.5,
Cc1c(NC(=O)c2cc(-c3ccc4c(c3)OCO4)on2)c(=O)n(-c2ccccc2)n1C,-11.1,nt,5.5,-0.4,2.2,2.7,-8.6,-38.5,
CN(C)S(=O)(=O)c1ccc(Cl)c(C(=O)NC2CCN(Cc3ccccc3)C2)c1 (configuration not stated),7.2,i,1.1,-0.5,0.4,-2.8,-7.4,-10.8,
Nc1nc(C(F)(F)F)cc(=O)[nH]1,2.4,i,-3.9,2.9,7.1,-5.4,nt,-5.2,
COc1ccc(CCOC(=O)c2cccc(NC(C)=O)c2)cc1,2.3,i,nt,-2.7,-3.1,-16.2,-8.2,-22.4,
O=C(N/N=C/c1cc(Cl)ccc1O)c1ccc(Br)cc1,15.6,nt,99.5*,-33.1,-10.7,32.0,nt,3.4,
NC(=O)c1c(NC(=O)CCCn2cnc([N+](=O)[O-])n2)sc2c1CCCC2,39.5,i,-6.1,-4.9,-2.8,-1.2,-13.7,4.3,
COc1ccc(Cc2nnc(NS(=O)(=O)Cc3ccccc3)s2)cc1,6.3,i,0.1,-0.6,-2.0,-10.6,8.0,-24.1,
O=[N+]([O-])c1ccc(N2CCN(c3ccccc3)CC2)cc1,1.1,i,-0.4,3.0,-1.3,0.4,-15.1,-54.9,
C=CCn1c(SCC(=O)NC2CC2)nnc1-c1cccs1,-1.0,i,-6.2,0.9,2.5,-6.4,2.8,8.7,
COc1ccc(CNC(=O)CCSCc2ccccc2C)cc1,1.0,i,0.0,0.2,1.7,2.1,nt,-0.6,
Cc1ccc(-c2nn(-c3ccccc3)cc2C2CC(c3cccs3)=NN2C(=O)CCCC(=O)O)cc1 (configuration not stated),14.5,i,8.8,8.6,-0.9,5.5,-7.3,33.1,
COc1ccc(N2CCN(C(=O)CN(C)S(=O)(=O)c3ccc4c(c3)c(=O)n(C)c(=O)n4C)CC2)cc1,12.3,i,-0.1,0.9,0.1,2.1,nt,31.2,
Cc1ccc(S(=O)(=O)N2CCCCC2c2cccnc2)c(C)c1C (configuration not stated),6.6,i,15.4,0.2,-7.9,-7.1,nt,18.6,
COc1ccc(Nc2cc(C)c3ccccc3n2)cc1,1.1,i,-1.9,7.7,-1.2,-12.0,nt,-14.7,
CC(C)CCn1c(O)c(N=Nc2ccccn2)c2ccccc21,-17.7,i,2.1,-2.0,2.0,9.5,-2.2,?,
COCC(=O)N(C)C1(c2nnnn2CCOC(=O)Nc2cccc3ccccc23)CCCC1,16.6,i,nt,4.4,1.3,41.7,-17.4,nt,
C/C(=N\NC(=O)OC(C)(C)C)c1ccccc1Br,-1.2,i,-2.0,-3.5,0.5,-1.0,nt,-8.6,
Cc1ccc2cc(S(=O)(=O)NCCCC(=O)O)ccc2c1,-4.8,i,1.0,8.3,6.5,4.9,1.6,nt,
Cc1ccc(OCCC(=O)OCC(=O)NC2CCCC(C)C2C)cc1 (configuration not stated),nt,nt,8.7,2.8,4.3,nt,32.6,nt,
Cc1ccc(N/N=C(\C#N)C(N)=S)c(C)c1,6.8,i,41.9,0.2,-2.3,9.7,nt,-14.5,
CCSc1nnc(NC(=O)C2(C)Cc3ccccc3C(=O)O2)s1 (configuration not stated),-2.0,i,-21.5,1.3,2.7,-0.3,4.7,23.6,
CCOC(=O)c1sc2nc(CSc3nc4ccccc4n3CC)[nH]c(=O)c2c1C,37.6,i,-5.0,-5.7,-0.5,29.7,-12.0,6.4,
O=C(COC(=O)C12CC3CC(CC(O)(C3)C1)C2)NC12CC3CC(CC(C3)C1)C2,-7.3,i,15.9,8.8,4.0,4.6,nt,16.8,
Cc1ccc(NC(=O)CCc2ccccc2)cc1C,nt,nt,nt,1.5,4.3,nt,2.2,-19.8,
COc1ccc(CCC(=O)N/N=C(\C)c2ccc3c(c2)OCO3)cc1,-3.6,i,nt,3.2,0.4,-7.4,-15.3,-24.1,
CCCC(=O)N1CCCC1(C)C(=O)Nc1ccc(-n2cccc2)cc1 (configuration not stated),nt,nt,nt,-0.3,4.1,nt,-13.7,-0.8,
CC(C)NC(=O)Cn1c(SCC(=O)N2CCCCCC2)nc2ccccc21,-2.1,i,-15.8,3.5,2.1,-8.1,-10.6,-11.1,
CCOC(=O)C1=C(COC(=O)CNS(=O)(=O)c2ccc(C)cc2)NC(=O)NC1C (configuration not stated),5.8,i,-3.2,-1.5,3.9,-2.5,-9.7,-0.6,
COc1ccc(S(=O)(=O)NCC(c2ccco2)N2CCOCC2)cc1 (configuration not stated),nt,i,1.0,-7.1,1.9,nt,-8.4,-8.2,
COc1ccc(-c2cc(C(=O)N/N=C/c3cccnc3)c3ccccc3n2)cc1,-8.0,i,-1.8,-2.4,-2.6,-4.4,-13.8,-11.9,
CC(=O)Nc1nnc(-c2c(-c3c(Cl)cccc3Cl)noc2C)o1,5.6,i,-7.1,1.7,0.3,2.6,2.3,-18.7,
COc1ccc(NC(=O)CN(C)C(=O)c2cccc(S(=O)(=O)N3CCN(C)CC3)c2)cc1,nt,i,-7.3,-1.0,-3.2,nt,-1.0,-2.0,
CC(C)Cc1nc2n[nH]c(N)c2c2c1COC(C)(C)C2,-4.3,i,-10.1,3.1,1.2,-14.1,nt,nt,
COc1cccc(C2Nc3ccc4ccccc4c3C3=C2C(=O)CCC3)c1O (configuration not stated),6.6,i,8.0,-3.6,0.8,10.3,-8.4,-9.4,
COc1ccc(CCNC2CC(=O)N(CCc3ccc(OC)c(OC)c3)C2=O)cc1 (configuration not stated),-8.4,i,nt,1.8,-1.7,-1.8,1.2,nt,
CN1CCN(C(=O)c2cn(-c3ccccc3)nc2-c2cccnc2)CC1,0.7,i,6.7,-3.2,-0.8,-3.4,nt,nt,
COC(CNS(=O)(=O)c1cccc2nonc12)OC,-11.1,nt,-4.3,-1.5,4.2,0.6,nt,-7.8,
CCCCN(CCCNC(=O)C1CCN(C(=O)c2cc3sccc3n2C)CC1)Cc1ccccc1,5.4,i,9.6,-1.3,-0.8,16.1,2.1,-5.2,
CCN(CC(=O)NCc1cccs1)C(=O)c1ccc(N(C)S(=O)(=O)c2ccc(C)cc2)cc1,nt,nt,nt,5.3,-5.4,nt,4.7,8.6,
Cc1cc(C)nc(OC(C(=O)O)C(OCCc2ccccc2)(c2ccc(F)cc2)c2ccc(F)cc2)n1 (configuration not stated),2.3,i,9.7,-3.2,2.5,-10.0,5.2,2.1,
O=C(CCSCc1ccccc1Cl)NC1CCCCC1,-18.9,i,11.1,2.6,2.3,-0.5,nt,3.4,

# Carrying on:
SMILES,PABP polyA inh,Rce1 inh,CSC inhib,MT1-MMP act inh,MT1-MMP act inh RFP,eIF4H inh,UUG fidelity,Env fusion inh,others
C[C@H](CO)N1C[C@H](C)[C@H](CN(C)C(=O)NC2CCCCC2)Oc2ncc(Br)cc2C1=O,nt,nt,nt,-0.4,1.4,nt,0.8&-2.3,-6.4,
Cc1cc(C)cc(C(=O)NCC(=O)N(C)CCOc2ccccc2)c1,nt,nt,nt,-1.4,1.9,nt,-18.5,0.5,
O=c1c(-c2ccc(Cl)cc2)[n+]([O-])c2ccccc2n1OCc1nc2ccccc2[nH]1,-0.6,i,-10.7,0.6,5.2,-6.4,nt,-0.8,
O=[N+]([O-])c1ccc(Cl)c2cccnc12,3.3,i,-15.9,2.1,1.9,37.1,nt,-9.2,

# Among those listed so far, these contain a furan ring, fused or not.
SMILES,PABP polyA inh,Rce1 inh,CSC inhib,MT1-MMP act inh,MT1-MMP act inh RFP,eIF4H inh,UUG fidelity,Env fusion inh,others
Cc1ccccc1C(=O)N/N=C1\SCC(=O)N1Cc1ccco1,-1.5,i,4.0,-1.8,1.5,-10.5,nt,9.8,
O=C(c1ccco1)N1CCN(S(=O)(=O)c2ccc(S(=O)(=O)NC3CCCCC3)cc2)CC1,-1.5,i,-13.5,5.2,0.3,-5.7,-10.3,nt,
COc1ccc(S(=O)(=O)NCC(c2ccco2)N2CCOCC2)cc1 (configuration not stated),nt,i,1.0,-7.1,1.9,nt,-8.4,-8.2,

# As a short view, 2 of the compounds above:
SMILES,PABP polyA inh,Rce1 inh,CSC inhib,MT1-MMP act inh,MT1-MMP act inh RFP,eIF4H inh,UUG fidelity,Env fusion inh,others
O=c1c(-c2ccc(Cl)cc2)[n+]([O-])c2ccccc2n1OCc1nc2ccccc2[nH]1,-0.6,i,-10.7,0.6,5.2,-6.4,nt,-0.8,
O=[N+]([O-])c1ccc(Cl)c2cccnc12,3.3,i,-15.9,2.1,1.9,37.1,nt,-9.2,

# Screening data: PubChem, several laboratories
